Bioassay records deposited in PubChem by several laboratories.
Env fusion inh: blocks HIV Env-driven cell-cell fusion; HeLa-JRFL Env/CEM21 cell fusion, luciferase; inhibition, % at 12.3 µM; 360,000 compounds, 1.1% hits; AID 651610;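 active = mean replicate inhibition score of at least 50 and every replicate individually at or above 50; inconclusive = only one of the two criteria met; inactive = mean below 50 and not all replicates reaching 50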;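 also: 0% = plate neutral controls and 100% = maraviroc near 300 nM; one replicate is shown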
eIF4H inh: inhibitors of RNA binding by human eIF4H; eIF4H fluorescence polarization binding assay; inhibition, % at 35 µM; 290,000 compounds, 0.94% hits; AID 2012;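 active = 50% or more with normal probe brightness, or confirmed in later tests; inconclusive = above 50% with abnormal brightness, or retests that disagree; inactive = below 50% or failed in later tests; about a fifth of its hits are not listed in these tables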;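 also: calls also rest on retests at 20 µM and on dose response follow-up; 0% = protein and probe with vehicle and 100% = probe without protein; strong numbers were not always called active; many hits fall short of the cut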
MT1-MMP act inh: blocks activation of human MT1-MMP; P50281; HT1080 RFP-PRO-GFP cells, GFP/RFP ratio fluorescence, overnight; percent of plate control window, DMSO zero; GFP/RFP ratio change, % at 20 µM; 360,000 compounds, 0.061% hits;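 active = GFP/RFP ratio change of at least 30% with cell ATP level not reduced by more than half and red fluorescence within 50% of control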; also: strong numbers were not always called active
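Assay system: HT1080 RFP-PRO-GFP cells. Benchmarks: DMSO vehicle wells and RFP-L50D-GFP reporter cell wells. Times: overnight cell settling, then overnight compound exposure, 37 °C, 5% CO2. Compound: 20 µM single dose, 1% DMSO. Read-out basis: GFP/RFP fluorescence ratio.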
UUG fidelity: yeast start codon fidelity modulation | S. cerevisiae UUG-firefly luciferase reporter, luminescence/redox ratio | activity score, % at 18.7 µM | 350,000 compounds, 0.13% hits;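 active = replicate mean at a twofold rise or more, about +100% in these data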;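 also: firefly luciferase made from a UUG start codon reports start codon fidelity; reporter light over untreated wells divided by growth signal over untreated wells; some hits fall short of that in this replicate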
Rce1 inh: blocks yeast Ras-converting enzyme | Q03530 | yeast membranes, quenched prenylated peptide cleavage fluorescence | calls only | 290,000 compounds, 0.27% hits;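 active = fall in fluorescence gain of 50% or more versus controls, with final raw signal at or below 3038400; inconclusive = same 50% fall but final raw signal above 3038400; inactive = fall in fluorescence gain under 50%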;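 also: plate controls were neutral control wells for no effect and wells lacking membranes for full effect; tested at 10 µM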
Target sequence (Q03530 whole entry, looked up): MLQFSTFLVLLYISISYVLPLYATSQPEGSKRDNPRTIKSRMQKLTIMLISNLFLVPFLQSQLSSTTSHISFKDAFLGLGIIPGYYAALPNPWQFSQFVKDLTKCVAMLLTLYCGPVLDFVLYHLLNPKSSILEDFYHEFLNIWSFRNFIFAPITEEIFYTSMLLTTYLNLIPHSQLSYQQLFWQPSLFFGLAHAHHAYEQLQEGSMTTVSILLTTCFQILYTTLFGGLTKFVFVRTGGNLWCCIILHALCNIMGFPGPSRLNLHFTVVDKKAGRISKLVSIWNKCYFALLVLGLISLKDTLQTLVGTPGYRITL
PABP FP inh: PABP-poly(A) binding inhibition; P11940; 290,000 compounds, 1% hits; inhibition, % at 35 µM; AID 2014; PABP-poly(A) RNA binding, fluorescence polarization;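 active = 50% or more with normal probe brightness, or confirmed in later tests; inconclusive = above 50% with abnormal brightness, or retests that disagree; inactive = below 50% or failed in later tests; about a fifth of its hits are not listed in these tables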;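 also: calls also rest on retests at 20 µM and on dose response follow-up; controls were probe without protein and protein plus probe with vehicle; some compounds called inactive have numbers as strong as hits; many hits fall short of the cut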
Target sequence (P11940 whole entry, looked up): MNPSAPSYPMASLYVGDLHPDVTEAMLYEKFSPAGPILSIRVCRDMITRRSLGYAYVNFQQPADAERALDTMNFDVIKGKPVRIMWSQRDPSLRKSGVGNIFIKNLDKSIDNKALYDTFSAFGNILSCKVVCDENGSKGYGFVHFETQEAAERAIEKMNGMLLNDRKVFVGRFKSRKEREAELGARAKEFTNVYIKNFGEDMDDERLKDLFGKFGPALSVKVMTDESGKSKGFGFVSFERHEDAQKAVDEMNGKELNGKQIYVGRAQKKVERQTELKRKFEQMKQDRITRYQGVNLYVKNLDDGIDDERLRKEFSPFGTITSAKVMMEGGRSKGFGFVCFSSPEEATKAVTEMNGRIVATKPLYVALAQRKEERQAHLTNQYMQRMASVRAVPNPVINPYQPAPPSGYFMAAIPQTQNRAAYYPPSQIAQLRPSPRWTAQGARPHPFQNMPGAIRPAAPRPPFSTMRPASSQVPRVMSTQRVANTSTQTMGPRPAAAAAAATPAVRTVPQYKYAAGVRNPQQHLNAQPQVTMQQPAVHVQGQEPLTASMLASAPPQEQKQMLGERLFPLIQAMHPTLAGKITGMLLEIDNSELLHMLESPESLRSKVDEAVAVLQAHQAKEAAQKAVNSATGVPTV
CSC inhib: blocks cancer stem cells; cancer stem cell-like cells viability, luminescence; inhibition, % at 7.5 µM; 300,000 compounds, 1.1% hits; AID 2717;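 active = mean at 75% or more and at least half the replicates too; inconclusive = mean and replicates disagree; tested in HMLE shEcad cells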;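 also: 0% = median of negative and 100% = median of positive control wells; the first replicate is given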
eIF4H inh retest: recorded beside eIF4H inh, whose call it bears; inhibition, %; compound at 20 µM; confirmation average;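 mean of two retest wells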
PABP FP inh retest: also measured in PABP FP inh; calls as there; inhibition, %; compound at 20 µM; confirmation repeats;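 mean of two retest wells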
MT1-MMP act inh RFP: also measured in MT1-MMP act inh; calls as there; RFP signal change, %; measured here: RFP expression control read;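 0 = vehicle wells; hits needed this value within 50% of zero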
The depositor's hits bear a star; i = inactive; ? = inconclusive; · = not tested or not shown.

SMILES	Env fusion inh	eIF4H inh	MT1-MMP act inh	MT1-MMP act inh RFP	UUG fidelity	Rce1 inh	PABP FP inh	CSC inhib	others
COc1ccc(C(C)(NC(C)=O)c2nc(-c3cccc4cccnc34)cs2)cc1 (stereo not drawn)	9	·	-1	0	-7	·	·	·
Cc1c(NS(=O)(=O)c2cccc(C(=O)NCc3ccccc3)c2)c(=O)n(-c2ccccc2)n1C	-43	-7	0	0	-1	i	-3	·
CCCN(CC(=O)Nc1ccccc1C)C(=O)c1ccc(N2CCOCC2)c([N+](=O)[O-])c1	-8	·	-1	-3	-1	i	·	-21
CCOC(=O)C1CCN(C(=S)NC(=O)c2cccs2)CC1	-10	2	0	3	-10	i	-5	-4
COc1ccccc1C/C(N)=N/OC(=O)COc1cccc(C)c1C	9	10	-2	0	-4	i	14	-5
CCOC(=O)c1nn(-c2ccccc2)c(C#N)c1N	-8	-15	2	2	·	?	-7	11
COc1cc(Cl)c(C)cc1NC(=O)Cc1ccc(OC)c(OC)c1	16	10	0	-11	0	i	8	4
CCOC(=O)C(=NC1CCS(=O)(=O)C1)NNc1ccccc1Cl (stereo not drawn)	-4	-2	3	3	-4	i	1	3
Cc1ccc(S(=O)(=O)N2CCN(C(=O)c3cc(C4CC4)nc4c3cnn4C(C)C)CC2)cc1	·	·	-2	-6	0	·	·	-9
CCOc1ccc(NC(=S)N2CCN(S(C)(=O)=O)CC2)cc1	·	9	-2	4	-22	i	0	-12
COc1cc(NC(=O)c2ccc(=O)[nH]n2)cc(OC)c1OC	3	-7	4	2	-9	i	5	-6
COc1ccc(OCc2nc3ccccc3[nH]2)cc1	·	-9	-2	-4	-21	i	4	·
COc1ccc(/C=C2\N=C(C)N(c3ccc(C(=O)O)cc3)C2=O)cc1OC	-4	-7	-1	1	·	i	5	19
COc1cc(/C=C2\C(=O)N(c3cccc(C(=O)O)c3)N=C2C)ccc1OCc1ccccc1	-11	·	2	0	-11	·	·	·
Cc1ccc(C)c(S(=O)(=O)N2CCCC2CNC(=O)C(=O)NC2CC2)c1 (stereo not drawn)	-12	·	1	1	-18	i	·	0
CC1CCCCN1c1ncnc(N)c1[N+](=O)[O-] (stereo not drawn)	16	-12	-19	-12	·	i	-7	·
O=C(NCCN1CCOCC1)c1ccc(Cl)cc1O	5	-5	-5	0	-11	i	2	·
C=CCc1c(NCCO)nc(C)[nH]c1=O	·	-8	3	9	-16	i	4	-3
COCCCNC(=O)C12CCC(C)(C(=O)C1)C2(C)C (stereo not drawn)	·	-10	5	10	-15	i	-4	·
COc1ccccc1N1CCN(CC(=O)Nc2cccc(F)c2)CC1	·	0	3	1	-1	i	-7	-5
CC1OC(OC2C(OC3C(O[C@H]4CC[C@]5(C)C6C=C[C@]78OC[C@@]9(CC[C@@H](C)[C@H](C)C97)[C@H](O)C[C@@]8(C)[C@]6(C)CC[C@H]5C4(C)C)OC(C)C(O)C3O)OC(CO)C(O)C2O)C(O)C(O)C1O (stereo partly drawn)	·	0	·	·	·	i	1	·
O=c1c(S(=O)(=O)c2ccc(Cl)cc2)cn(Cc2ccccc2F)c2ccc(F)cc12	24	-6	-7	-8	·	i	-20	·
Fc1ccccc1-c1nc2ncccc2o1	-5	1	1	3	-22	i	-2	-5
Cc1nc(C(=O)N(C)C)nn1-c1cc(Cl)ccc1Cl	-240	-18	3	2	·	i	0	-10
N#Cc1cc(C(=O)c2cc(F)ccc2O)cn(Cc2ccccc2)c1=O	16	-2	-13	-4	·	i	-5	-13
COc1ccc(OC)c(C2NC(=O)CCC2[N+](=O)[O-])c1 (stereo not drawn)	6	-5	2	7	-7	i	-7	-2
Cn1c(SCC(=O)NC2CCCCC2)nnc1-c1cccnc1	12	4	-4	-2	-18	i	-6	·
N#CCC(=O)N1CCN(C(c2ccccc2)c2ccccc2)CC1	-8	·	-6	-4	-7	i	·	-2
COc1ccc(CCNC(=O)COc2ccc(-c3ccc(C#N)cc3)cc2)cc1	25	-4	3	3	-7	i	-2	-8
O=C(NC1CC2CCCC(C1)N2C(=O)NC1CCCCC1)c1ccc(F)cc1 (stereo not drawn)	-55	39	·	·	0	i	-4	-4
CCOC(=O)c1c(C)[nH]c(C)c1C(=O)COC(=O)/C=C/c1cccc(Cl)c1	·	-6	14	8	-19	i	-4	1
O=C(O)c1cc(Cl)c(Cl)cc1C(=O)N1CCOCC1	·	-5	-1	1	-7	i	6	-5
CCOc1ccc(S(=O)(=O)N2CCOCC2)cc1NC(=O)CSCC(=O)Nc1ccc(OC)cc1	18	·	3	2	1	·	·	·
COc1ccc(Cl)cc1S(=O)(=O)NC(C)C(=O)NCc1ccc2c(c1)OCO2 (stereo not drawn)	3	-3	1	2	8	i	0	-7
COc1ccccc1Nc1nc(N)nc(CN2CCCCC2)n1	8	2.7*	1	-2	-19	i	89*	-18	eIF4H inh retest=91*;PABP FP inh retest=97*
CN1CCN(c2ccc([N+](=O)[O-])cc2/C=N/NC(=O)c2cccc([N+](=O)[O-])c2)CC1	-7	-5	·	·	·	i	2	22
CC(C)(C)NC(=O)COC(=O)c1ccccc1NC(=O)c1ccco1	0	-10	-2	-5	·	i	24	2
O=C(Nc1c2c(nn1-c1cccc(Cl)c1)CS(=O)(=O)C2)c1ccco1	-2	-10	3	4	-6	i	3	7
CCCCn1c(N)c(N(CC(C)C)C(=O)CCCn2c(=O)oc3ccccc32)c(=O)[nH]c1=O	-2	·	-2	4	-13	i	·	-19
COc1ccc(-c2ccc(CNCc3ccccn3)o2)cc1Cl	·	0	·	·	·	i	4	-3
Cc1ccc(NC(=O)COc2ccc(Br)cc2CO)cc1	-67	1	5	-3	·	i	-6	13
Cc1c(C(=O)OCC(=O)N2CCCC(C)C2)oc2ccccc12 (stereo not drawn)	-4	·	2	3	·	i	·	-14
CCOC(=O)C1(CC2CCCCO2)CCN(C(=O)Nc2ccc3c(c2)OCO3)CC1 (stereo not drawn)	-2	1	0	5	·	i	2	8
COc1cccc(CN(C)S(=O)(=O)c2c(C)noc2C)c1OC	1	·	3	1	-18	·	·	·
Cc1cnc(C(=O)OCC(=O)Nc2ccc(Br)cc2F)cn1	·	·	0	2	-12	·	·	-1
Cc1ccc(NC(=O)CN(C)C(=S)NC2CC2)cc1	6	1	-1	-3	·	i	-15	-15
COCCNS(=O)(=O)c1cc(OC)c(C)cc1C	1	0	1	4	-2	i	-3	-1
NC(=O)C1CCN(C(=O)c2ccc(OCC(=O)Nc3cccc(C(F)(F)F)c3)cc2)CC1	0	·	4	-2	·	i	·	-9
CC(=O)N1CCN(CC(c2ccccc2)c2ccccc2)CC1	-2	-8	-3	-1	-2	i	0	-4
CCOC(=O)NN1C(=O)c2ccccc2NC1c1ccccc1 (stereo not drawn)	32	-5	1	1	-21	i	-13	-12
Additional compounds:
SMILES	Env fusion inh	eIF4H inh	MT1-MMP act inh	MT1-MMP act inh RFP	UUG fidelity	Rce1 inh	PABP FP inh	CSC inhib	others
Cc1cc(NC(=O)c2ccc(S(=O)(=O)Nc3ccccc3)cc2)no1	-33	6	-3	-4	-15	i	3	5
Cc1cc(NC(=O)COC(=O)C2CCN(C(=O)c3ccc(Cl)cc3)CC2)no1	-2	4	-3	-1	-12	i	-2	10
CC(C)OC(=O)CSc1nnc(CNc2ccc(Cl)cc2)n1Cc1ccccc1	9	-5	1	-6	44	i	2	-3
O=C(O)CCCNS(=O)(=O)c1ccc(NCc2ccccc2)c(C(=O)O)c1	·	-3	14	4	34	i	2	-2
CN(C)c1ncnc2c1ncn2C1CCCCO1 (stereo not drawn)	2	·	-2	2	-19	·	·	·
COc1ccc(C(=O)NCCc2nnc(SCC(=O)Nc3ccccc3C(C)C)n2C)cc1	-19	-10	4	0	-7	i	-3	1
O=C(Cn1c(=O)oc2ccccc21)N1CCN(S(=O)(=O)c2ccccc2)CC1	5	·	-3	3	-5	·	·	-10
CCOC(=O)C1CCN(C(=O)c2ccccc2)c2scc(-c3ccccc3)c2C1=O (stereo not drawn)	5	·	1	-10	-10	·	·	·
CN(CC(=O)Nc1ccccc1Br)C(=O)c1cc2c(s1)CCCCC2	-49	·	6	3	·	i	·	·
CN(C)CCCN(Cc1cc2cc3c(cc2[nH]c1=O)OCO3)C(=S)Nc1ccccc1	6	-8	-13	-7	·	i	7	-6
CN1CCN(c2ccc(-c3cccc(NC(=O)COc4ccc(Cl)cc4Cl)c3)nn2)CC1	-273	·	7	2	·	i	·	16
Fc1ccc(C2NC(=S)NC3=C2N2CCC3CC2)cc1 (stereo not drawn)	·	-2	-1	3	12	i	3	-3
CCSc1ncc(/C=N/Nc2ccc(Cl)cc2)n1C	·	5	-4	2	-13	i	3	93*
N#C/C(=C\c1c(N2CCC(C(N)=O)CC2)nc2ccccn2c1=O)S(=O)(=O)c1ccccc1	·	-9	4	1	8	i	-7	-1
CN(CCOc1ccccc1)C(=O)c1ccc2c(=O)n3c(nc2c1)CCC3	-12	·	2	3	-11	i	·	4
COc1ccc(C2=NN(C(=O)COc3ncnc4ccccc34)C(c3ccco3)C2)cc1 (stereo not drawn)	16	-5	0	-3	·	i	-7	-1
COc1cc2c(cc1NC(=O)C(C)OC(=O)C1CC(=O)N(Cc3ccco3)C1)oc1ccccc12 (stereo not drawn)	·	-2	2	-1	-15	i	6	-4

The list is partial; count on the stated rates, not on these rows.
